KSHV LANA nucl: inhibitors of KSHV LANA-nucleosome binding, primary screen, biochemical, fluorescence polarization, FITC-LANA1-23, chicken nucleosomes; FITC-LANA1-23 / chicken nucleosome fluorescence polarization; hits give low values; z-score (test concentration not listed); hit rate 0.3% among 51,000;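 active = both repeat wells score below -2 in polarization z-score versus plate sample wells, excluding overly bright wells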;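 note: 100 nL library stock added to about 30 µL; numbers are from one replicate; some results filed as inactive read as strong as hits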
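Test system: purified chicken nucleosomes with FITC-labelled LANA N-terminal peptide (1-23); Input: 240 nM purified chicken nucleosomes (480 nM peptide binding sites), final; Medium: TEN-BT buffer, pH 7.5; Timing: 10–45 min, room temperature; Technique: fluorescence polarization, 480 nm excitation, 535 nm parallel and perpendicular emission; Replication: duplicates.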
Ab BasE inh: BasE siderophore enzyme inhibitors, primary screen, biochemical, Acinetobacter baumannii ATCC 17978, fluorescence polarization. inhibition, % (no concentration beside the values). purified BasE, fluorescence polarization binding displacement. hit rate 0.1% among 84,000;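 active = both replicates above 25% with normal brightness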;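 note: 0% = negative plate control signal and 100% = positive plate control signal; stock transfer was 100 nL into about 30 µL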
Numbers without * were called inactive. This is a subset; count on the stated rates, not on these rows.

For O=C(NC1CCN(C(=O)Nc2ccccc2C(F)(F)F)CC1)c1ccco1 the results were KSHV LANA nucl 0.61 and Ab BasE inh -0.5.
`CC1=CC(C)(C)Nc2ccc(OCC(=O)N3c4ccccc4Sc4ccccc43)cc21` gave Ab BasE inh 0.1.
For CN/N=C/c1c(O)ccc2ccccc12 the results were Ab BasE inh -2.8.
For O=S1(=O)CCN2N=C(C(F)(F)F)SC2=N1 the results were Ab BasE inh -0.5.
`O=C(O)CSc1nc2cccnc2s1` gave Ab BasE inh 4.4.
`CC(C)(C)N(N)C(=S)Nc1cccc(Cl)c1` gave Ab BasE inh 1.9.
Screening Cc1ccc(-c2cc3c(nn2)-c2ccccc2C3=O)cc1 returned KSHV LANA nucl 0.4 and Ab BasE inh 2.3.
Screening CC1=CC2CC1C1C(=O)N(c3ccc(C(F)(F)F)cc3)C(=O)C21 (stereo not given) returned KSHV LANA nucl -0.33 and Ab BasE inh 1.3.
`CS(=O)(=O)Cc1ccc(C(=O)Nc2ccccc2C(=O)NC2CC2)cc1` gave Ab BasE inh -3.6.
For Cc1onc(-c2ccccc2)c1CNC(=O)Nc1ccc(C(F)(F)F)cc1 the results were KSHV LANA nucl 0.54 and Ab BasE inh -1.5.
Screening CCOC(=O)c1c(C)[nH]c(C)c1C(=O)COc1ccc2c(c1)OCO2 returned Ab BasE inh 1.4.
Screening COc1ccc(NC(=O)CS(=O)CC(=O)Nc2cc(OC)ccc2OC)cc1 (stereo not given) returned Ab BasE inh -0.5.
Screening CC(=O)N1CCc2c([nH]c3ccccc23)C1C (stereo not given) returned Ab BasE inh 0.3.
Screening COc1ccc(C2CC(=O)c3cnc(NCc4ccccc4)nc3C2)cc1 (stereo not given) returned KSHV LANA nucl -0.91 and Ab BasE inh 1.7.
For c1ccc(CN2CCOC(CNc3nc(-c4cccnc4)nc4ccccc34)C2)cc1 (stereo not given) the results were Ab BasE inh 0.7.
Cc1ccccc1Nc1nc(N)nc(CN(C)Cc2ccc(F)cc2)n1 was read as Ab BasE inh 4.3.
CC1=NN(c2ccccc2)C(=O)C1(O)C1C(=O)c2ccccc2C1=O (stereo not given) was read as KSHV LANA nucl -1.2 and Ab BasE inh 1.7.
Screening O=C(COC(=O)C1CC(=O)N(Cc2ccccc2)C1)Nc1ccc2c(c1)OCO2 (stereo not given) returned Ab BasE inh 1.4.
Screening O=C(COC(=O)c1ccc(S(=O)(=O)N2CCCCC2)cc1)NC1CCCCC1 returned Ab BasE inh 2.9.
`Cc1cc(C)c2c(-n3cccc3)c(C(=O)NC3=NCCS3)sc2n1` gave Ab BasE inh -8.5.
For CC(C)(C(N)=O)/[N+]([O-])=C\c1ccccc1 the results were KSHV LANA nucl 0.045 and Ab BasE inh 1.5.
For CC1(C)CC(=O)C(C2C3=C(CC(C)(C)CC3=O)Oc3ccccc32)=C(O)C1 (stereo not given) the results were KSHV LANA nucl -0.45 and Ab BasE inh -1.6.
Screening Cc1noc(C)c1CSc1ccccc1C(=O)NC(C)c1ccc(-n2ccnc2)cc1 (stereo not given) returned Ab BasE inh 2.6.
Nn1c(Nc2ccccc2)nc2sc3c(c2c1=O)CCCC3 was read as KSHV LANA nucl -0.036 and Ab BasE inh -1.9.
Screening CN1CCN(C(=O)c2ccc(-c3ccccc3)cc2)CC1 returned KSHV LANA nucl 0.74 and Ab BasE inh -3.1.
For CNC(=O)Nc1ccc(Cl)cc1 the results were Ab BasE inh -0.9.
`CN(C)c1cc(NC(=O)Nc2ccccc2)c2ccccc2n1` gave KSHV LANA nucl 1.3 and Ab BasE inh -2.8.
`CC1(N)CCS(=O)(=O)C1` (stereo not given) gave KSHV LANA nucl -1.2 and Ab BasE inh 2.6.
`CC(C)C(NS(=O)(=O)c1cccs1)C(=O)NCc1ccccc1F` (stereo not given) gave KSHV LANA nucl -1.3 and Ab BasE inh 2.8.
`Cc1cc(=O)c2cc(Cl)ccc2s1` gave KSHV LANA nucl 1.2 and Ab BasE inh 0.5.
`Cc1nc2c(cc(OCc3c(C)noc3C)c3ccsc32)s1` gave Ab BasE inh 0.6.
For CC12CC3(C)CC(C)(C1)CC(CN=Cc1ccc(O)cc1)(C2)C3 the results were Ab BasE inh 2.0.
Screening CCC(=O)Nc1ccc(C(=O)CN2C(=O)C3CC=CCC3C2=O)cc1 (stereo not given) returned Ab BasE inh 1.2.
`Cc1cc(C)cc(OC(=O)c2ccc(Oc3cc(Cl)cc(Cl)c3)o2)c1` gave Ab BasE inh 2.8.
For O=C1CC(C(=O)Nc2ccccc2)N=C(N2CCc3ccccc3C2)N1 (stereo not given) the results were KSHV LANA nucl -1 and Ab BasE inh -1.6.
Screening CCc1nc(N2CCC(C)CC2)c(C#N)c2c1COC(C)(C)C2 returned KSHV LANA nucl 0.25 and Ab BasE inh 2.3.
COC(=O)CCc1nc2ccccc2[nH]1 was read as KSHV LANA nucl -0.73 and Ab BasE inh 2.0.
`O=C(Cn1[nH]c(=O)ccc1=O)OCc1ncc(-c2cccc(Cl)c2)o1` gave Ab BasE inh -2.1.
For CCOC(=O)c1oc2ccccc2c1N=Cc1c(O)[nH]c(=O)[nH]c1=O the results were Ab BasE inh -0.8.
Screening CC(C)n1cn[nH]c1=S returned Ab BasE inh 4.5.
For CN1C(=O)/C(=C2\SC(=S)N(C)C2=O)SC1=S the results were KSHV LANA nucl 0.31 and Ab BasE inh 3.7.
Screening Cc1cc(-n2c(C)cc(C(=O)COC(=O)/C=C/c3ccccc3)c2C)no1 returned Ab BasE inh 2.4.
For C=CCN1C(=O)/C(=C/c2ccc(OCC#N)c(OC)c2)SC1=S the results were KSHV LANA nucl 0.39 and Ab BasE inh -1.7.
For C/C(=N\Nc1nnc(C)c(=O)[nH]1)C(=O)O the results were KSHV LANA nucl -0.53 and Ab BasE inh 1.1.
Screening COC(=O)c1ccc(NC(=O)CSc2nnc(Cn3c(=O)sc4ccccc43)n2C)cc1 returned KSHV LANA nucl 0.3 and Ab BasE inh -0.9.
For CCn1cc2nc(SCC(=O)N3CCCC3)n(Cc3ccc(C)cc3)c(=O)c2n1 the results were Ab BasE inh -3.2.
CC(C)COC(=O)C(C)Oc1ccc2c(=O)c(-c3ccccc3)coc2c1 (stereo not given) was read as Ab BasE inh 1.4.
Screening O=C(CCCn1c(=O)c2cccn2c2ccccc21)NCc1ccccc1 returned KSHV LANA nucl 0.44 and Ab BasE inh -0.9.
`O=C(Nc1ccccc1)N1CCCN(c2ccc(C(F)(F)F)cn2)CC1` gave KSHV LANA nucl -0.67.
O=C(NC1CCCCC1)C1CCN(S(=O)(=O)c2ccccc2)CC1 was read as KSHV LANA nucl -0.74 and Ab BasE inh -2.1.
`C=CCNC(=O)Nc1ccc2oc(C)nc2c1` gave KSHV LANA nucl -1.3 and Ab BasE inh 0.5.
`Cc1nc2ccccc2n1CCNC(=O)c1ccc(S(=O)(=O)N(C)C)cc1` gave Ab BasE inh -0.3.
Screening CC(NC(=O)c1ccc(F)cc1)C(=O)O (stereo not given) returned KSHV LANA nucl 1.4 and Ab BasE inh 0.7.
Screening CN1CCN(C(=O)/C(=C/c2cn(C)c3ccccc23)NC(=O)c2ccco2)CC1 returned KSHV LANA nucl -0.63 and Ab BasE inh 0.2.
For O=C(NNc1nc2c(F)cccc2s1)c1nc2ccccc2s1 the results were KSHV LANA nucl -1.2 and Ab BasE inh 8.1.
CC(=O)Nc1ccc(C(=O)NCCN2CCOCC2)cc1 was read as KSHV LANA nucl 0.73 and Ab BasE inh -2.0.
`O=C(CSc1ncn[nH]1)NCCOc1ccccc1` gave KSHV LANA nucl -0.67 and Ab BasE inh 0.2.
O=C(N/N=C/c1ccco1)c1ccccc1 was read as KSHV LANA nucl 0.025 and Ab BasE inh -2.2.
For COc1ccc(Cl)cc1NC(=O)CN(C)Cc1nc2ccsc2c(=O)[nH]1 the results were Ab BasE inh -1.2.
Screening COc1ccc(OC)c(S(N)(=O)=O)c1 returned KSHV LANA nucl -0.12 and Ab BasE inh 3.1.

Of the compounds above, five contain a CF3 group:
For O=C(NC1CCN(C(=O)Nc2ccccc2C(F)(F)F)CC1)c1ccco1 the results were KSHV LANA nucl 0.61 and Ab BasE inh -0.5.
For O=S1(=O)CCN2N=C(C(F)(F)F)SC2=N1 the results were Ab BasE inh -0.5.
Screening CC1=CC2CC1C1C(=O)N(c3ccc(C(F)(F)F)cc3)C(=O)C21 (stereo not given) returned KSHV LANA nucl -0.33 and Ab BasE inh 1.3.
For Cc1onc(-c2ccccc2)c1CNC(=O)Nc1ccc(C(F)(F)F)cc1 the results were KSHV LANA nucl 0.54 and Ab BasE inh -1.5.
`O=C(Nc1ccccc1)N1CCCN(c2ccc(C(F)(F)F)cn2)CC1` gave KSHV LANA nucl -0.67.

Filtered by structure: the compounds so far with a COOH group
`O=C(O)CSc1nc2cccnc2s1` gave Ab BasE inh 4.4.
For C/C(=N\Nc1nnc(C)c(=O)[nH]1)C(=O)O the results were KSHV LANA nucl -0.53 and Ab BasE inh 1.1.
Screening CC(NC(=O)c1ccc(F)cc1)C(=O)O (stereo not given) returned KSHV LANA nucl 1.4 and Ab BasE inh 0.7.

Other compounds:
`CCCc1nc2ccccc2n1C(C)C(=O)O` (stereo not given) gave KSHV LANA nucl 0.55 and Ab BasE inh 0.5.
For CCSc1nc2ccccc2c(=O)n1C1CCOC(C)(C)C1 (stereo not given) the results were Ab BasE inh -1.2.
Screening C[C@H]1O[C@@H](O[C@H]2[C@@H](O)C[C@H](O[C@H]3[C@@H](O)C[C@H](O[C@H]4CC[C@@]5(C)[C@H](CC[C@@H]6[C@@H]5C[C@@H](O)[C@]5(C)[C@@H](C7=CC(=O)OC7)CC[C@]65O)C4)O[C@@H]3C)O[C@@H]2C)C[C@H](O)[C@@H]1O returned KSHV LANA nucl -0.32 and Ab BasE inh -1.8.
`COc1cc(OC)cc(-c2cc(NC(C)=O)n[nH]2)c1` gave KSHV LANA nucl 0.54 and Ab BasE inh -4.1.
COC(=O)c1ccccc1NC(=O)/C=C/c1ccc(C)o1 was read as KSHV LANA nucl 0.27 and Ab BasE inh 0.1.
`CCOc1ccc(N/C(N)=N/c2nc(C)cc(C(F)(F)F)n2)cc1` gave KSHV LANA nucl -0.014 and Ab BasE inh 1.0.
`CCN(CC)C(=O)C1CCCN(C2=NS(=O)(=O)c3ccccc32)C1` (stereo not given) gave Ab BasE inh 3.1.
`CCN(CC)S(=O)(=O)c1ccc(Nc2ccc(OC)cc2OC)nc1` gave Ab BasE inh 3.1.
For O=C(O)c1cnc2ccccn2c1=O the results were KSHV LANA nucl 1.9 and Ab BasE inh -0.3.
`COc1cc(O)sc1C=Nc1ccc(Cl)cc1` gave KSHV LANA nucl -0.77.
For O=C(NCc1ccc2c(c1)OCO2)NC12CC3CC(CC(C3)C1)C2 the results were KSHV LANA nucl 1.5 and Ab BasE inh -4.1.
Screening O=C(Nc1ccccc1O)c1ccccn1 returned KSHV LANA nucl 0.69 and Ab BasE inh -1.1.
CC(C)(C)C(=O)NC1CCN(S(=O)(=O)c2ccccc2C(=O)O)CC1 was read as KSHV LANA nucl -0.51 and Ab BasE inh 0.0.
For COc1ccc(S(=O)(=O)N(Cc2ccccc2)Cc2nc3ccccc3c(=O)[nH]2)cc1 the results were KSHV LANA nucl 1.5 and Ab BasE inh -3.2.
Cc1ccc(C)c(-c2nnc(NC(=O)c3ccc(S(=O)(=O)N4CCc5ccccc54)cc3)o2)c1 was read as KSHV LANA nucl 0.36 and Ab BasE inh -1.8.
`O=C(/C=C/c1ccco1)Nc1ccc(S(=O)(=O)N2CCCCC2)cc1` gave KSHV LANA nucl 1.2 and Ab BasE inh -6.4.
`CCOc1ccc(OCCSc2nnnn2-c2ccccc2)cc1` gave Ab BasE inh 1.0.
Screening Cc1ccc(C)n1-c1oc(-c2ccco2)c(-c2ccco2)c1C#N returned KSHV LANA nucl 0.43 and Ab BasE inh -1.4.
`Cc1ccc(/C=N/N2CCCCC2)o1` gave Ab BasE inh 0.9.
C=CCn1c(=N)n(CC(O)COc2cccc(C)c2)c2ccccc21 (stereo not given) was read as KSHV LANA nucl 0.054 and Ab BasE inh -5.3.
C=CCNC(=O)c1cc(-c2ccccc2)on1 was read as KSHV LANA nucl 0.11 and Ab BasE inh 3.1.
Screening O=C(CCCCCN1C(=O)C2C3C=CC(C3)C2C1=O)Nc1nccs1 (stereo not given) returned KSHV LANA nucl 0.18 and Ab BasE inh 3.0.
COc1ccc(C2=NN(C(=O)c3ccc(C)cc3)CC2)cc1 was read as KSHV LANA nucl 2.4 and Ab BasE inh -5.2.
For O=C(O)C1CCCN(S(=O)(=O)Cc2ccccc2)C1 (stereo not given) the results were KSHV LANA nucl -1.1 and Ab BasE inh 1.1.
Screening Cn1ccnc1SCC(=O)Nc1ccc(S(N)(=O)=O)cc1 returned Ab BasE inh 4.8.
Screening CC(C)OC(=O)c1sc2nc3c(cc2c1N)C(=O)CCC3 returned KSHV LANA nucl 0.82 and Ab BasE inh -0.9.
For CCC(=O)Nc1ncc2c(n1)CC(c1ccc(N(C)C)cc1)CC2=O (stereo not given) the results were KSHV LANA nucl -0.96 and Ab BasE inh 1.1.

Source: PubChem (ICCB-Longwood Screening Facility, Harvard Medical School)
